High-throughput results from PubChem BioAssay.
VDR inhibitor = blocks the human vitamin D receptor; 400,000 compounds, 0.93% hits; AID 504847; Potency, µM, without a hit: max response, negative = inhibition, usual class: inhibitors; VDR-SRC2-3 peptide fluorescence polarization, 2 h; P11473; active = well fitted inhibition curve with a large enough effect; inconclusive = small, poorly fitted or top-dose-only effect, or another doubt; inactive = no such curve, though single readings can be large or run the other way; also: series mostly up to about 120 µM
Target sequence (P11473 whole entry, looked up): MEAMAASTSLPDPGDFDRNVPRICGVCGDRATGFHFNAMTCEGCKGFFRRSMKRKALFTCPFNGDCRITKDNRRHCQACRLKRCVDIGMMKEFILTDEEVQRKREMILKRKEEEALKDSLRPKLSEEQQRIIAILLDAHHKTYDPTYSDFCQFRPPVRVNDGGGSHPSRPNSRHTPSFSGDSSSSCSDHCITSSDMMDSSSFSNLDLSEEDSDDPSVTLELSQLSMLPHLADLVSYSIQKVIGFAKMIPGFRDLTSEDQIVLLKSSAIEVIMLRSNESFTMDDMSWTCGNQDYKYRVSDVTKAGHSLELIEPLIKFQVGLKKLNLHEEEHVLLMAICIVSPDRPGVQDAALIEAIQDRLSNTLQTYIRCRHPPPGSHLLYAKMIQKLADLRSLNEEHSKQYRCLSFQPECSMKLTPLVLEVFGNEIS
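Two reagent solutions held at 4 deg C in the dark were dispensed, compounds pinned at 23 nl, and the mixture incubated 2 h at room temperature. Read-out: fluorescence polarization of VDR–SRC2-3 peptide binding.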
* marks the source's active call; other numbers are inactive results; & = joins results of further samples. % is scaled to controls: 0 for no effect and ±100 for the full control effect; potency is read from the fitted curve at half-maximal effect. A portion of the library; the hit share may differ from the screen's.

CC1(C)CC(=O)C2=C(C1)OC(N)=C([N+](=O)[O-])C2c1ccc(C#N)s1 (stereo not drawn) was read as VDR inhibitor 1%.
Screening Cc1ccc(C)c(-c2cc(C(=O)Nc3sc(C)c(C)c3C(N)=O)c3ccccc3n2)c1 returned VDR inhibitor -1%.
Screening Cc1ccc(S(=O)(=O)c2nc(Nc3nccs3)sc2Cl)cc1 returned VDR inhibitor 8%.
Screening CCOC(=O)c1c(C)sc2c1N(C(=O)CN1CCOCC1)c1cc(Cl)ccc1S2 returned VDR inhibitor 7%.
For Cc1ccccc1NC(=O)CSc1ccc2nnc(-c3ccccn3)n2n1 the results were VDR inhibitor 19%.
`O=C(O)c1cccc(Nc2cc(Cl)c3nonc3c2[N+](=O)[O-])c1` gave VDR inhibitor 13µM*.
`Cc1ccc(NC(=O)CN2CCCC2c2cccn2C)c(Br)c1` (stereo not drawn) gave VDR inhibitor -12%.
For CN(C)CCN1C(=O)c2oc3ccccc3c(=O)c2C1c1ccc(F)cc1 (stereo not drawn) the results were VDR inhibitor 3%.
Screening N#C/C(=C\c1ccccc1)C(=O)NNS(=O)(=O)c1ccc(Br)cc1 returned VDR inhibitor 45µM*.
For C/C(=N\O)c1ccn(S(=O)(=O)c2ccc(Cl)cc2)c1 the results were VDR inhibitor inconclusive.
`COc1ccccc1CNc1ncnc2c1nnn2Cc1ccccc1` gave VDR inhibitor -9%.
`N#C/C(=C\c1ccccc1)C(=O)N(c1ccccn1)C1CCCCC1` gave VDR inhibitor 25µM*.
`COc1ccc2cc(C(=O)C3CCCN(C(=O)c4cncs4)C3)ccc2c1` (stereo not drawn) gave VDR inhibitor -21%.
Screening CC1=NN(C(N)=S)C(=O)C1N=Nc1cccc(Cl)c1 (stereo not drawn) returned VDR inhibitor 4%.
`CC(C)/C=C/C(=O)N1CCCC(N2CCN(c3ccccc3F)CC2)C1` (stereo not drawn) gave VDR inhibitor inconclusive.
`COc1ccc(C2/C(=C(/O)c3ccc4c(c3)CC(C)O4)C(=O)C(=O)N2Cc2cccnc2)cc1` (stereo not drawn) gave VDR inhibitor -6%.
CCc1ccc(NC(=S)N2CCN(c3cccc(OC)c3)CC2)cc1 was read as VDR inhibitor 8%.
`N#Cc1ccc(NC(=O)NN2CCCCCC2)cc1` gave VDR inhibitor -6%.
For CC(C)OCCCNC(=O)COCC(=O)Nc1ccc(OCCc2ccccc2)cc1 the results were VDR inhibitor -16%.
`Cc1ccsc1C(=O)OCC(=O)NC1CCCC(C)C1C` (stereo not drawn) gave VDR inhibitor -19%.
Screening Cc1cc(C)n(C(=O)c2ccc(C)c(S(=O)(=O)N3CCCC3)c2)n1 returned VDR inhibitor -1%.
For Cc1[nH]n(-c2ccccc2)c(=O)c1N=Nc1ccc(C(N)=O)cc1 the results were VDR inhibitor -12%.
Screening COC(=O)CSc1nnc(CCc2nc3ccccc3[nH]2)n1C returned VDR inhibitor -5%.
Screening CCOc1ccc(-c2[nH]ncc2-c2csc(C)n2)c(O)c1 returned VDR inhibitor 0%.
Screening COc1ccc(NC(=S)Nc2ccc(F)cc2)cc1 returned VDR inhibitor -27%.
Screening CCCc1c(C(=O)N/N=C/c2cccc(OCc3ccc(F)cc3)c2)nnn1-c1nonc1N returned VDR inhibitor 15%.
Cc1ccc(NC(=O)C2CCN(S(C)(=O)=O)CC2)c(C)c1 was read as VDR inhibitor -18%.
For Cc1nc2c(-c3ccc(F)cc3)c(C)nn2c(C)c1CCC(=O)N1CCC(Cc2ccccc2)CC1 the results were VDR inhibitor -10%.
Screening COc1ccccc1CNc1ncncc1-c1cccnc1 returned VDR inhibitor inconclusive.
Screening CC(=O)N1CCC(N(CCCOC(C)C)C(=O)Nc2ccc(Cl)cc2)CC1 returned VDR inhibitor 0%.
Screening Cc1nn(-c2ccccc2)c(Cl)c1/C=N/NC(=O)c1nn(C)cc1[N+](=O)[O-] returned VDR inhibitor 12%.
CCC1=C(OC(=O)N(CC)CC)N2C(=O)OC(=NCC3CC3)[C@]2(C)[C@H]2C1=CC[C@H]1C(=O)NC(=O)[C@H]12 was read as VDR inhibitor -20%.
Cc1ccc(S(=O)(=O)N2CCN(CC(=O)N/N=C\c3cccnc3)CC2)cc1 was read as VDR inhibitor 4%.
Screening CCN(CC)S(=O)(=O)c1ccc(N2CCOCC2)c(NC(=O)C2CSC3(C)CCC(=O)N23)c1 (stereo not drawn) returned VDR inhibitor 4%.
COC(C[C@@H](O)C[C@H](O)COCc1ccccc1)OC was read as VDR inhibitor 6%.
Screening O=C(NCc1ccc2c(c1)OCO2)C1CCN(S(=O)(=O)N2CCOCC2)CC1 returned VDR inhibitor -20%.
O=C(COc1ccc(S(=O)(=O)NC2CCCCC2)cc1)NC1CCCC1 was read as VDR inhibitor 0%.
For O=C(COC(=O)c1ccc2c(c1)OCCO2)NCc1ccccc1 the results were VDR inhibitor 21%.
Screening CC(O)c1cccc(NC(=O)Nc2cccc(NC(=O)Nc3cccc(C(C)O)c3)c2)c1 (stereo not drawn) returned VDR inhibitor 4%.
COc1ccc2c(c1)c1nc3n(c(=O)c1n2CC(=O)Nc1ccccc1)CCS3 was read as VDR inhibitor -17%.
For O=C(NCCc1cccc(C(F)(F)F)c1)C1CCC(=O)N(CCc2cccc(F)c2)C1 (stereo not drawn) the results were VDR inhibitor -1%.
Screening CC1CCN(S(=O)(=O)c2ccc3nc(NCc4ccc(F)cc4)ccc3c2)CC1 returned VDR inhibitor 8%.
`CCCN(CCC)C(=O)C1CCCN1S(=O)(=O)c1cccc2nsnc12` (stereo not drawn) gave VDR inhibitor 14%.
CCOC(=O)CN1C(=O)N[C@@H](CCc2ccccc2)C(C(=O)OC)=C1C was read as VDR inhibitor 2%.
`Nc1c(C(=O)NCc2ccccc2)sc2nc3c(cc12)C(=O)CCC3` gave VDR inhibitor -11%.
For COc1ccc(CNCCC2(O)CC(C)N(C)CC2C)cc1OC (stereo not drawn) the results were VDR inhibitor 5%.
COC(=O)c1ccc(CNC(=O)C2CCC(=O)N(Cc3cccc(F)c3)C2)cc1 (stereo not drawn) was read as VDR inhibitor -8%.
Cc1cccc(N(CC(=O)NCc2ccco2)C(=O)CCC(=O)Nc2ccccn2)c1C was read as VDR inhibitor -4%.
`O=C1Nc2ccccc2/C1=C/c1ccccc1F` gave VDR inhibitor inconclusive.
COc1ccc(C)cc1NC(=O)CN1C(=O)COc2ccc(S(=O)(=O)NC3CCCC3)cc21 was read as VDR inhibitor -8%.
`Cc1ccc(OC(C)C(=O)N2CCCc3ccccc32)cc1` (stereo not drawn) gave VDR inhibitor -7%.
Screening Cc1ccc(C2(C)NC(=O)N(CC(=O)N3CCN(S(=O)(=O)c4ccccc4[N+](=O)[O-])CC3)C2=O)cc1 (stereo not drawn) returned VDR inhibitor -2%.
`CSc1ccc(CN(C)CC(=O)N(C)CC(=O)Nc2ccccc2Br)cc1` gave VDR inhibitor -6%.
For CN=C(Nc1cccc(Cl)c1)SC1CC(=O)N(c2ccc(OC)cc2)C1=O (stereo not drawn) the results were VDR inhibitor -19%.
For COc1ccc(C2N=C(N)N=C(N)N2c2ccccc2OC)cc1OC (stereo not drawn) the results were VDR inhibitor 13%.
Screening C=C(C)n1c(=O)n(Cc2ccc(C)cc2)c2ccccc21 returned VDR inhibitor 8%.
COc1ccc(S(=O)(=O)CCC(=O)NCCc2ccc(C)cc2)cc1 was read as VDR inhibitor 7%.
CC(=O)c1cccc(NC(=O)C2CCN(S(=O)(=O)c3ccccc3)CC2)c1 was read as VDR inhibitor -25%&-5%.
For NC(=O)c1ccsc1NC(=O)COC(=O)c1ccncc1 the results were VDR inhibitor 1%.
Cc1ccc(-n2nnnc2-c2cccnc2)cc1 was read as VDR inhibitor -24%.

Reprinted at random: 2 compounds from above, in no set order.
COc1ccc(C)cc1NC(=O)CN1C(=O)COc2ccc(S(=O)(=O)NC3CCCC3)cc21 was read as VDR inhibitor -8%.
`Cc1ccc(OC(C)C(=O)N2CCCc3ccccc32)cc1` (stereo not drawn) gave VDR inhibitor -7%.

Next part:
CCCCCCCCCCCCCCC(O)C[N+](C)(CCO)CCO (stereo not drawn) was read as VDR inhibitor -1%.
COc1ccc(C(=O)Nc2ccc3ccccc3c2)cc1OC was read as VDR inhibitor -10%.
O=C(Nc1nc2c(s1)CCCC2)c1ccc(N2C(=O)CCC2=O)cc1 was read as VDR inhibitor -2%.
COc1ccc(/C=N/NS(=O)(=O)c2ccccc2)cc1OS(=O)(=O)c1ccccc1 was read as VDR inhibitor 5%.
`COc1ccc(NC(=O)C2CCN(S(C)(=O)=O)CC2)cc1` gave VDR inhibitor 4%.
For COc1ccc(C2Nc3ccccc3C(=O)N2NC(=O)c2ccccc2)cc1OC (stereo not drawn) the results were VDR inhibitor -24%.
Screening O=C(/C=C/c1c(Cl)cccc1Cl)Nc1ccncc1 returned VDR inhibitor 19%.
CC(C)Cc1csc(=S)[nH]1 was read as VDR inhibitor -19%.
For CC(C)CC1Nc2ncnc(N3CCN(c4ccccc4)CC3)c2N(Cc2ccc(Cl)cc2)C1=O (stereo not drawn) the results were VDR inhibitor -18%.
Screening Clc1ccc(COc2ccccc2CNCc2cccnc2)cc1 returned VDR inhibitor 21%.
Screening CCOC(=O)c1c(NC(C)=O)sc(/C(C)=N/Nc2ccc(C(=O)O)cc2)c1C returned VDR inhibitor 3%.
Screening Cc1c(C(=O)NCC(C)(C)N2CCOCC2)oc2ccccc12 returned VDR inhibitor -10%.
For Cc1ccccc1S(=O)(=O)Cc1ccc(C(=O)NCc2cccs2)o1 the results were VDR inhibitor 4%.
For COc1ccc(S(=O)(=O)N2CCc3ccccc32)cc1C(=O)NCCc1ccc(S(N)(=O)=O)cc1 the results were VDR inhibitor -8%.
Cc1sc2nc(CSc3nnc(Cc4cccs4)n3C3CCCCC3)[nH]c(=O)c2c1C was read as VDR inhibitor -20%.
`COc1ccc(/C=C2\N=C(C)OC2=O)cc1[N+](=O)[O-]` gave VDR inhibitor 79µM*.
Screening C=CCn1c(SCC(=O)N2CCOCC2)nc(O)c(Cc2ccccc2)c1=O returned VDR inhibitor 4%.
`N/C(=N\O)c1ccc(N2CCN(c3ncccc3C(F)(F)F)CC2)nc1` gave VDR inhibitor 13%.
COc1ccc(C2C=C3CNS(=O)(=O)C3CC2OC(=O)c2ccc(C(F)(F)F)cc2)cc1 (stereo not drawn) was read as VDR inhibitor -12%.
`CC(=O)Nc1ccc2nc(CN3CCN(CC=C(C)C)C(CCO)C3)ccc2c1` (stereo not drawn) gave VDR inhibitor 1%.
COc1ncc2nc(-c3ccc(Cl)cc3)c(=O)n(CCC#N)c2n1 was read as VDR inhibitor 8%.
`CN1CCN(C(=O)C2CCC(=O)N(CCc3cccc(F)c3)C2)CC1` (stereo not drawn) gave VDR inhibitor -1%.
`Cc1ccc(F)cc1NC(=O)CN1C(=O)NC2(CCCc3ccccc32)C1=O` (stereo not drawn) gave VDR inhibitor -6%.
For CCCN1C(=O)/C(=C/c2ccc3c(c2)OCO3)NC1=S the results were VDR inhibitor -10%.
O=C(CCNC(=O)C1CCN(S(=O)(=O)c2ccccc2)CC1)NCc1ccccc1Cl was read as VDR inhibitor -18%.
Cc1ccc(CNC(=O)c2ccc3c(O)c(S(=O)(=O)c4ccc(Cl)cc4)c(=O)[nH]c3c2)cc1 was read as VDR inhibitor -3%.
For COc1cc2nc(NC(=O)c3ccc(S(=O)(=O)N4CCCC4)cc3)sc2cc1OC the results were VDR inhibitor 14%.
Screening CC1=NC(C)(C)Cc2c(C)cccc21 returned VDR inhibitor -9%.
Screening Cc1ccc(C(=O)NNC(=O)c2cccc(Br)c2)cc1 returned VDR inhibitor 21%.
For CNCCOc1ccc(Cl)c(Cl)c1 the results were VDR inhibitor -11%.
Screening NS(=O)(=O)c1ccc(CCNC(=O)CCc2nc3ccccc3s2)cc1 returned VDR inhibitor 15%.
CCOC(=O)NC(NCc1ccccc1)(C(F)(F)F)C(F)(F)F was read as VDR inhibitor 6%.
CCOC(=O)c1sc2nc(C)nc(SC(C)C(=O)N(C)c3ccccc3)c2c1C (stereo not drawn) was read as VDR inhibitor -30%.
`O=C(CNC(=O)c1ccccc1F)OCC(=O)N1CCCc2ccccc21` gave VDR inhibitor -7%.
For O=C(NC(=O)c1ccc(Cl)cc1)OC1CCCCC1 the results were VDR inhibitor -11%.
`O=C(Cc1nc2ccccc2[nH]1)N/N=C/c1ccccc1` gave VDR inhibitor inconclusive.
For Cc1ccc(N2CC(C(=O)N3CCC(C(=O)Nc4nncs4)CC3)CC2=O)cc1 (stereo not drawn) the results were VDR inhibitor -8%.

In the list so far, 12 have two or more sulfur atoms.
Screening Cc1ccc(S(=O)(=O)c2nc(Nc3nccs3)sc2Cl)cc1 returned VDR inhibitor 8%.
Screening CCOC(=O)c1c(C)sc2c1N(C(=O)CN1CCOCC1)c1cc(Cl)ccc1S2 returned VDR inhibitor 7%.
Screening CCN(CC)S(=O)(=O)c1ccc(N2CCOCC2)c(NC(=O)C2CSC3(C)CCC(=O)N23)c1 (stereo not drawn) returned VDR inhibitor 4%.
`CCCN(CCC)C(=O)C1CCCN1S(=O)(=O)c1cccc2nsnc12` (stereo not drawn) gave VDR inhibitor 14%.
COc1ccc(/C=N/NS(=O)(=O)c2ccccc2)cc1OS(=O)(=O)c1ccccc1 was read as VDR inhibitor 5%.
CC(C)Cc1csc(=S)[nH]1 was read as VDR inhibitor -19%.
For Cc1ccccc1S(=O)(=O)Cc1ccc(C(=O)NCc2cccs2)o1 the results were VDR inhibitor 4%.
For COc1ccc(S(=O)(=O)N2CCc3ccccc32)cc1C(=O)NCCc1ccc(S(N)(=O)=O)cc1 the results were VDR inhibitor -8%.
Cc1sc2nc(CSc3nnc(Cc4cccs4)n3C3CCCCC3)[nH]c(=O)c2c1C was read as VDR inhibitor -20%.
For COc1cc2nc(NC(=O)c3ccc(S(=O)(=O)N4CCCC4)cc3)sc2cc1OC the results were VDR inhibitor 14%.
Screening NS(=O)(=O)c1ccc(CCNC(=O)CCc2nc3ccccc3s2)cc1 returned VDR inhibitor 15%.
CCOC(=O)c1sc2nc(C)nc(SC(C)C(=O)N(C)c3ccccc3)c2c1C (stereo not drawn) was read as VDR inhibitor -30%.
